# Source: PubChem (National Center for Advancing Translational Sciences (NCATS))
# GLA inh pH 4.5 – blocks human alpha-galactosidase A at pH 4.5. P06280. AID 1467. purified enzyme, 4-MU-alpha-Gal fluorescence, pH 4.5. activity change, negative = inhibition, % at 105 µM. 230,000 tested, under 10 active; inconclusive = small, poorly fitted or top-dose-only inhibition, or a rising curve; inactive = flat fitted curve, though single readings scatter; no compound was filed as active;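 also: 0% = full activity with enzyme and -100% = basal without enzyme; dose as in the result columns while the protocol names 77 µM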
# Target sequence (P06280 whole entry, looked up): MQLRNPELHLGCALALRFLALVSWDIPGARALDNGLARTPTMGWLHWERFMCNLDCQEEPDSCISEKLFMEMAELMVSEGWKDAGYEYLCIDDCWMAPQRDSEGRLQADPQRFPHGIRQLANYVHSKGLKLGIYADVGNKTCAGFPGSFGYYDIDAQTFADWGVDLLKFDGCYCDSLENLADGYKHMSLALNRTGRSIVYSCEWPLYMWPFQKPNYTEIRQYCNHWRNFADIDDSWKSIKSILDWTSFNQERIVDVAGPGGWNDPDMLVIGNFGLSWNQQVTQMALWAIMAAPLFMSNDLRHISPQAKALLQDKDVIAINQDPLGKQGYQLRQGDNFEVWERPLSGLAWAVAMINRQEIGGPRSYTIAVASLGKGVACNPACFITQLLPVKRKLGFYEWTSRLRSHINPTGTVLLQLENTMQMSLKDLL
# miR-21 FLuc – miR-21 reporter, rising signal. HeLa miR-21 FLuc reporter, luciferase, 48 h. Potency, µM (series often up to 38.3 µM), for the others: at the highest dose reporter change, positive = more light. 340,000 tested, under 10 active. AID 2288; active = well fitted rising curve with a large enough effect; inconclusive = small, poorly fitted or top-dose-only effect; inactive = no such curve, though single readings can be large or run the other way;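 also: % of control where 0% means no effect; miR-21 action dims this reporter so a rising signal means less miR-21 action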
#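 Compounds were titrated across several concentrations (up to approximately 40 uM) and incubated 48 hours with HeLa miR-21-FLuc reporter cells (miR-21 target sequence downstream of FLuc, endogenous miR-21). Readout was firefly luciferase luminescence after lytic detection reagent.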
# Rango release inh – prevents RanGTP from dissociating the Rango-importin beta complex; O95149+P62826; Biochemical FRET Rango-importin beta, RanGTP-induced dissociation; Potency, µM (highest dose often 46.1 µM), for inactives: at the highest dose activity change, negative = inhibition; 340,000 compounds, 0.071% hits; AID 540253; active means falling FRET ratio curve, often poorly fitted, with flat reads before Ran was added; inconclusive means other falling curves, or compound fluorescence or quenching; inactive means flat or rising ratio curve;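 also: potency is read from the fitted curve at half-maximal effect; % of control where 0% means no effect; nearly all actives have a fitted effect of over 45% in size; -100% = wells without RanGTP and RCC1; the record marks most hits as doubtful in a second field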
#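 Compounds preincubate 5 min with complex of recombinant Rango and importin beta in PBS with 1 mM DTT. Ran (0.6 uM) loaded with 2 mM GTP plus 0.2 uM RCC1 starts dissociation; FRET is recorded 45 min later.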
# Rango complex inh – inhibitors of Rango-importin beta complex formation; Potency, µM (series often up to 92.2 µM), inactives show top-dose inhibition of complex formation; 340,000 compounds, 0.031% hits; Q14974; Rango CFP/YFP FRET sensor + importin beta, 45 min; active = rising FRET ratio curve, often small or poorly fitted; inconclusive = mostly compound fluorescence or quenching in the first reads; inactive = flat curves in all reads;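 also: potency is read from the fitted curve at half-maximal effect; 0% = DMSO wells and 100% = buffer wells lacking importin beta; nearly all actives have a fitted effect of over 15% in size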
#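 FRET biosensor Rango (snurportin 1 IBB between N-terminal EYFP and C-terminal Cerulean), 50 nM in PBS/1 mM DTT/0.02% Tween-20/0.1% BSA, preincubated 5 min RT with compound; 0.125 microM importin beta added, 45 min RT, CFP/YFP FRET ratio read.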
# Active calls of the source: *; ? = inconclusive; nt = no result given. Only part of the results is shown (hit frequency here may not be typical).
no. | Structure | GLA inh pH 4.5 | miR-21 FLuc
1 | O=C1Nc2ccc(Br)cc2/C1=C/C1CC=CCC1 (stereo not given) | -1.0 | 25.6%
2 | CC(=O)c1c(C)[nH]c(C(=O)CN2CCN(S(=O)(=O)c3ccccc3F)CC2)c1C | nt | nt
3 | O=C(Nc1c2c(nn1-c1ccc(F)cc1)CS(=O)C2)C12CC3CC(CC(C3)C1)C2 (stereo not given) | -8.2 | 0.2%
4 | CC(C)(C)N(Cc1ccccc1)C(=O)COC(=O)C1CCN(c2ccc(C(F)(F)F)cn2)CC1 | nt | nt
5 | Cc1ccc(C(=O)Nc2ccccc2C(=O)NC2CCCCC2)cc1S(=O)(=O)N1CCOCC1 | 1.6 | -0.3%
6 | CCCN1C(=O)SC(CC(=O)Nc2ccc(C)cc2)C1=O (stereo not given) | 1.7 | -4.4%
7 | O=C(COC(=O)CCc1nc2ccccc2c(=O)[nH]1)Nc1ccc(OC(F)(F)F)cc1 | nt | nt
8 | CCOC(=O)c1c(N)nn(C(=O)c2ccccc2F)c1-c1ccc(OC)cc1 | 3.7 | -0.2%

no. | Rango release inh | Rango complex inh
1 | -0.2% | 5.6%
2 | -8.7% | -4.0%
3 | 46.3% | -3.5%
4 | 8.4% | -4.1%
5 | 1.2% | -3.6%
6 | -20.0% | ?
7 | 3.9% | -1.5%
8 | -5.6% | 3.0%

# Additional structures follow.
no. | Structure | GLA inh pH 4.5 | miR-21 FLuc
9 | Cn1cccc1CC(=O)NNC(=S)Nc1ccccc1Cl | 1.9 | -20.0%
10 | O=C(c1cccc(C(=O)N2CCN(Cc3ccccc3)CC2)c1)N1CCN(Cc2ccccc2)CC1 | 4.2 | 18.8%
11 | Cc1ccc(NC(=O)c2cc(-c3ccc(F)cc3)on2)cc1C | 3.4 | -8.0%
12 | CC(C)(C)C(=O)Nc1sc2c(c1C#N)CCC2 | -3.2 | 1.9%
13 | c1ccc(-c2oc3ncnc(NCCCN4CCOCC4)c3c2-c2ccccc2)cc1 | -7.5 | 3.0%
14 | O=C1N/C(=N\S(=O)(=O)c2ccccc2)S/C1=C\c1cc([N+](=O)[O-])ccc1O | nt | -1.9%
15 | COc1ccc(C2=CN3CCCCC3CC2=O)cc1OC (stereo not given) | nt | nt
16 | Cc1ccc(-c2sc(C(=O)NN)c(C)c2C#N)cc1 | 2.0 | 26.6%

no. | Rango release inh | Rango complex inh
9 | -0.1% | 1.7%
10 | -9.3% | -1.9%
11 | 9.0% | 2.2%
12 | -0.9% | 1.6%
13 | 15.8% | 4.1%
14 | ? | ?
15 | -2.3% | 2.7%
16 | -5.4% | -0.9%

# New compounds follow.
no. | Structure | GLA inh pH 4.5 | miR-21 FLuc
17 | CCC(=O)NC(Nc1ccccn1)(C(=O)OC)C(F)(F)F (stereo not given) | -3.4 | 0.7%
18 | CCCCC/S(CC1CC1(Cl)Cl)=N\S(=O)(=O)c1ccc(C)cc1 (stereo not given) | -0.3 | 3.5%
19 | Cc1ccc(S(=O)(=O)NCCC(=O)NC2CCCCC2C)cc1 (stereo not given) | nt | nt
20 | Cc1[nH]c2ccccc2c1C(=O)CSC(=S)N1CCCCC1 | -8.8 | -72.2%
21 | Cc1ccccc1NC(=O)CN(c1ccc(F)cc1)S(C)(=O)=O | -16.2 | -3.1%
22 | O=[N+]([O-])c1ccc(COc2ccccc2CN2CCCC2)cc1 | nt | nt
23 | O=c1cc(-c2ccccc2)n(S(=O)(=O)c2ccc3ccccc3c2)o1 | nt | nt
24 | COc1ccc(CCn2c(NN)nc3c2c(=O)[nH]c(=O)n3C)cc1 | -5.8 | 21.5%

no. | Rango release inh | Rango complex inh
17 | -7.5% | ?
18 | 6.5% | -1.1%
19 | -0.9% | 2.6%
20 | 14.5% | -0.9%
21 | -19.3% | 0.3%
22 | 4.2% | -0.1%
23 | 7.7% | 2.0%
24 | -13.4% | -0.7%

# The list continues:
no. | Structure | GLA inh pH 4.5 | miR-21 FLuc
25 | CN1CC[n+]2c(CN3C(=O)c4ccccc4C3=O)csc21 | -1.6 | -6.6%
26 | CC(=O)Nc1ccc(N=Cc2c(O)c3ccccc3oc2=O)cc1 | nt | 1.2%
27 | CCS(=O)(=O)Nc1ccccc1C(N)=O | 4.6 | -3.6%
28 | C=C(C)C1Cc2c(C)nn(-c3nc(C)cc(C)n3)c2C1 (stereo not given) | -13.3 | 13.7%
29 | C/C(=N\NC(=O)C(C)Sc1ccccc1)C(C)(C)C (stereo not given) | -0.5 | -8.3%
30 | S=C(NN=C1C2CC3CC(C2)CC1C3)Nc1ccccc1 | 8.2 | -26.4%
31 | O=C(/C=C/c1ccc(S(=O)(=O)N2CCOCC2)cc1)N1CCCCC1 | nt | nt
32 | CCN(CC)c1nc2ccccc2[nH]1 | -2.1 | -7.6%

no. | Rango release inh | Rango complex inh
25 | 3.0% | -5.5%
26 | -4.5% | 0.7%
27 | -6.5% | -0.6%
28 | -6.3% | 0.7%
29 | -5.0% | 0.2%
30 | -1.8% | 2.9%
31 | -13.4% | 0.7%
32 | -13.8% | -3.6%

# Next part
no. | Structure | GLA inh pH 4.5 | miR-21 FLuc
33 | CCc1ccc(NC(=O)C2CCCCC2C(=O)O)cc1 (stereo not given) | -5.3 | -11.0%
34 | O=C(CN(C(=O)CCC(=O)Nc1ccccn1)c1ccc2c(c1)OCO2)NCc1ccc(F)cc1 | nt | 3.1%
35 | COc1ccc(S(=O)(=O)CCC(=O)N(C)c2ccc(OC)cc2OC)cc1 | -0.2 | -1.3%
36 | COC(C(=O)N1CCC(CCC(=O)Nc2ccccc2)CC1)c1ccccc1 (stereo not given) | nt | -33.5%
37 | O=C(c1ccco1)N1C2C=CC(C2)C1(C(F)(F)F)C(F)(F)F (stereo not given) | 10.2 | 0.6%
38 | COc1ccc(C/C(C)=N\NC(=O)c2cn(C)c3ccccc23)cc1OC | 1.9 | 13.6%
39 | COc1ccc(-c2cc(C(=O)N(C)CC(=O)Nc3ccccc3C(F)(F)F)c3ccccc3n2)cc1OC | nt | nt
40 | CCCn1c(SCCN2C(=O)c3ccccc3C2=O)n[nH]c1=O | -1.2 | -5.6%

no. | Rango release inh | Rango complex inh
33 | -18.2% | 0.2%
34 | -1.3% | 2.6%
35 | 8.6% | 2.2%
36 | -11.1% | -2.5%
37 | -10.7% | -1.4%
38 | 0.0% | 0.8%
39 | 31.6% | -0.4%
40 | -8.2% | -6.5%

# Next structures follow:
no. | Structure | GLA inh pH 4.5 | miR-21 FLuc
41 | CC(=O)Nc1nc2cc3c(cc2s1)OCO3 | 0.6 | -38.0%
42 | O=C(COC(=O)CSc1ccc([N+](=O)[O-])cc1)NCc1cccs1 | nt | nt
43 | COCC1CCN(C(=O)c2cc(COc3ccc(C)c(C)c3)on2)C1 (stereo not given) | nt | -15.3%
44 | CCNC(=O)c1ccccc1-c1nc(-c2ccccc2)no1 | 3.5 | -18.1%
45 | COc1ccc(NS(=O)(=O)c2cccc(C(=O)NCC3(N(C)C)CCCCC3)c2)cc1 | nt | nt
46 | COc1ccc(/C=N/NC(=O)CNS(=O)(=O)c2ccc(C)cc2)cc1 | 1.8 | -6.2%
47 | Cc1ccc(S(=O)(=O)N(C)CC(=O)OCC(=O)N2CCN(c3ccccc3)CC2)cc1 | 1.1 | 2.6%
48 | CCOC(=O)C1CCCN(C(=O)CCn2nc(-c3ccccc3)ccc2=O)C1 (stereo not given) | 5.3 | -5.2%

no. | Rango release inh | Rango complex inh
41 | -10.1% | 5.0%
42 | 15.9% | -0.4%
43 | -0.5% | 8.7%
44 | 5.7% | -4.2%
45 | 32.7% | -0.4%
46 | -11.8% | 1.8%
47 | -5.6% | -4.3%
48 | 18.0% | 0.2%

# Other results.
no. | Structure | GLA inh pH 4.5 | miR-21 FLuc
49 | COC(=O)c1cccc(NC(=S)NC(C)C)c1 | -4.1 | -1.8%
50 | COCc1cc(=O)[nH]c(/N=C(\N)Nc2cccc(C)c2)n1 | 4.5 | -2.4%
51 | COc1ccc(NC(=S)N2CCN(c3ncccn3)CC2)c(OC)c1 | -4.5 | 0.0%
52 | COc1ccc(NC(=O)C(C)N2C(=O)c3ccccc3S2(=O)=O)c(OC)c1 (stereo not given) | nt | nt
53 | C/C(=N\NC(=O)CSCc1ccccc1Br)c1cccc([N+](=O)[O-])c1 | -5.5 | -2.1%
54 | COc1ccc(Nc2ncccc2C(=O)O)cc1 | 7.2 | -54.9%
55 | CC12C(=O)N(n3cnnc3)C(=O)C1C1C=CC2C1 (stereo not given) | -2.6 | -3.4%
56 | COC(=O)c1ccc(N(C(=O)CNC(=O)c2ccco2)C(C(=O)NCC2CCCO2)c2ccc(OC)c(OC)c2)cc1 (stereo not given) | nt | -6.0%

no. | Rango release inh | Rango complex inh
49 | -13.0% | -2.1%
50 | 5.6% | -4.8%
51 | -7.1% | -0.1%
52 | -15.9% | -0.1%
53 | -19.3% | 0.1%
54 | 42.5% | 3.6%
55 | 5.0% | -1.0%
56 | 22.1% | -1.1%

# Next records
no. | Structure | GLA inh pH 4.5 | miR-21 FLuc
57 | CCOC(=O)c1c(-c2ccc(OC)cc2)csc1NC(=O)C1CCCO1 (stereo not given) | -9.0 | 2.3%
58 | O=C(NC1CCCC1)C(c1ccncc1)N(C(=O)c1ccco1)c1ccc(Cl)cc1 (stereo not given) | nt | -6.5%
59 | O=C(Nc1ccc(Cl)cc1)c1cc(S(=O)(=O)N2CCOCC2)cs1 | 3.2 | 23.4%
60 | COc1cccc2cc(-c3cc(=O)oc4cc(C)c(O)cc34)oc12 | nt | -0.8%
61 | CCOC(=O)c1c(C(F)(F)F)cc(-c2ccc(F)cc2)nc1C | -8.4 | -3.7%
62 | Cc1ccc2cc3cc(C(=O)NCCN4CCOCC4)oc3nc2c1 | 0.3 | -12.1%
63 | CCCN1C/C(=C/c2cccc([N+](=O)[O-])c2)C(=O)/C(=C/c2cccc([N+](=O)[O-])c2)C1 | 1.6 | -4.6%
64 | O=C(/C=C/c1cn(-c2ccccc2)nc1-c1ccccc1)Nc1ccc(C(=O)O)cc1 | -1.5 | -9.4%

no. | Rango release inh | Rango complex inh
57 | -1.9% | ?
58 | 2.6% | 2.2%
59 | 22.4% | 4.2%
60 | -5.2% | 0.4%
61 | 13.4% | -0.3%
62 | 6.7% | 3.8%
63 | 26.0% | -2.9%
64 | -1.2% | 0.2%

# (cont.)
no. | Structure | GLA inh pH 4.5 | miR-21 FLuc
65 | CN(C)c1cccc2c(S(=O)(=O)N3CCCC3)cccc12 | nt | -19.9%
66 | O=C(COc1ccccc1)N1CCCC1 | 6.8 | -0.4%
67 | CN1C(=O)/C(=C/c2ccccc2Cl)Sc2ccc(C(=O)N3CCCC3)cc21 | nt | 11.2%
68 | CCCCNC(=O)NC1C(NC(=O)NCCCC)N(C)C(=O)N1C (stereo not given) | -2.0 | 1.1%
69 | CCOc1ccc(Nc2nc(N)c([N+](=O)[O-])c(N3CCN(CC)CC3)n2)cc1 | nt | -21.3%
70 | COc1ccccc1N(/N=C1\Sc2ccccc2C1=O)C(C)=O | -1.8 | 0.4%
71 | CC1CCCC(C)N1C(=O)CSc1nnc(COc2ccccc2)n1-c1ccccc1 (stereo not given) | 2.1 | 2.4%
72 | O=C1CC(c2nc3ccccc3[nH]2)CN1c1ccccc1F (stereo not given) | 0.8 | -4.7%

no. | Rango release inh | Rango complex inh
65 | 3.3% | 0.4%
66 | 0.6% | -1.0%
67 | -0.1% | 0.3%
68 | 12.2% | -1.8%
69 | 4.7% | 3.6%
70 | nt | ?
71 | -3.8% | -2.4%
72 | 0.8% | 5.4%
